PrP UTR inh = inhibition of PrP 5' UTR reporter expression; hit rate 0.35% among 340,000; inhibition, % (test concentration not listed); cell-based PrP 5' UTR mRNA reporter, plate reader;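 active = every replicate at 50% or more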;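 note: 0 = median of the neutral control wells; tested in H4 reporter cells; numbers are from one replicate; inactives centre near -14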
Bead autofluor = counter-screen for toxin protease inhibitors: compound fluorescence | compound autofluorescence counterscreen, microsphere flow cytometry; hits give high values | hit rate 3.1% among 360,000 | fluorescence intensity (no concentration beside the values);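 active = at least 3 SD above the mean of all compounds, about 16000 in these data; inconclusive = too few beads counted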;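 note: 100 nL of 1 mM stock went into each well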
RN4220 kill = growth inhibition of S. aureus RN4220, primary screen, OD600. 16 h. inhibition, % (concentration not given with the values). hit rate 0.33% among 330,000. AID 1259311, 2017;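 active = z-score of -3 or lower and OD600 up to 0.18 on both plates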;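 note: plate controls were untreated cells for no effect and reference antibiotic for full effect; stock transfer was 100 nL into about 80 µL; one replicate is shown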
Mtb hypoxia rep = PubChem AID 1159583; M. tuberculosis hypoxia-regulated fluorescent reporter, fluorescence; fluorescence inhibition, % (concentration not given with the values); hit rate 0.1% among 300,000;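 active = 35 to 45% if threefold the growth effect, above 45% if 1.5-fold the growth effect; inactive = the rest, general growth blockers included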;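 note: wells of about 50 µL received 100 nL stock; 0% = vehicle wells and 100% = reference inhibitor wells; whole bacteria with a GFP reporter of the hypoxia response; strong numbers were not always called active; many hits fall short of the cut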
BJeLR lethal = MLPCN primary cell-based screen for lethality selective to Ras in HRASV12 cells | AID 1554, 2009 | hit rate 0.17% among 300,000 | BJeLR (HRASV12) viability, CellTiter-Glo ATP luminescence, 48 h; reference of the scale not given here | inhibition, % (test concentration not listed);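 active = replicate mean above 50%; inconclusive = above 50% but judged a plate artefact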;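 note: 50 nL library stock added to about 25 µL; numbers are from one replicate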
Sa ugtP lethal = growth inhibition of ugtP-null S. aureus, primary screen, RN4220 ugtP deletion, OD600. AID 1259309, 2017. growth inhibition, % (test concentration not listed). hit rate 0.54% among 330,000. 16 h; some inactives read as strong as hits;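 active = z-score under -3 and OD600 up to 0.15 on both plates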;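 note: plate controls were untreated wells for no effect and antibiotic for full effect; wells of about 80 µL received 100 nL stock; the first replicate is given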
Mtb hypoxia rep growth = further read-out of Mtb hypoxia rep, marked with its call; growth inhibition, %; measured here: M. tuberculosis growth (absorbance);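 0% = vehicle and 100% = reference antibiotic; read after six days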
The depositor's hits bear a star; u = inconclusive; x = not tested or not shown.

SMILES | PrP UTR inh | Bead autofluor | RN4220 kill | Mtb hypoxia rep | Mtb hypoxia rep growth | BJeLR lethal | Sa ugtP lethal
COc1ccccc1NS(=O)(=O)c1ccc(C)c(C(=O)NC2CCN(Cc3ccccc3)CC2)c1 | -8 | 4950 | 0.9 | 2 | 7 | x | 2
COc1ccccc1CNC(=O)CNC(=O)c1cn(-c2ccccc2OC)c(=O)c2ccccc12 | -21 | 4643 | 2.3 | -7 | 1 | -6 | 2
O=C(COC(=O)c1cc(S(=O)(=O)N2CCCC2)ccc1O)Nc1ccc(S(=O)(=O)N2CCOCC2)cc1 | -21 | 4896 | 12 | 2 | 3 | -12 | 4
COc1ccccc1N(Cc1cc(=O)[nH]c2ccccc12)C(=O)c1cccc([N+](=O)[O-])c1 | -7 | u | 6.7 | 7 | 18 | 2 | 7
O=C(C(=O)N1CCCc2ccccc21)N1CCCc2ccccc21 | -9 | 2044 | 14 | 12 | 19 | 6 | -5
O=C(NN=Cc1c[nH]c2ccccc12)c1cc(-c2cccc3ccccc23)n[nH]1 | x | x | -9.6 | 1 | -6 | x | -5
O=C(CN1C(=O)NC2(CCCCCCC2)C1=O)N1CCc2ccccc2C1 | -11 | 4301 | 1.3 | x | x | 4 | 3
CC(=O)NNc1cc(=O)c2c(=O)n(C)c(=O)n(C)c2[nH]1 | -10 | 2747 | -17 | 0 | 1 | 3 | -1
Cc1cc(Br)cc2c(C(=O)Nc3c(C)n(C)n(-c4ccccc4)c3=O)cc(-c3cccs3)nc12 | -18 | 10831 | -3.8 | x | x | 0 | -16
Cc1ncc(CO)c(/C=N/NC(=S)Nc2ccc(C(C)C)cc2)c1O | 10 | 5326 | x | x | x | 8 | x
O=C(N/C=C\n1cnc2cc(C(F)(F)F)ccc21)c1ccc([N+](=O)[O-])cc1 | -14 | 5684 | -2.2 | -2 | 1 | -1 | 6
CNC(=S)NCCc1c[nH]c2ccc(OC)cc12 | -12 | 3214 | 2.3 | 11 | 2 | 0 | 1
COc1cc(C(=O)NCCC(=O)NCCc2ccc(Cl)cc2)cc(OC)c1OC | -14 | 2391 | 7.2 | 1 | 4 | -6 | 15
CC1CCN(C(=O)c2scc3c2OCCO3)CC1 | -4 | 4302 | 1.5 | x | x | 6 | 3
Cc1nc(S/C(C(=O)O)=C2/C(=O)Nc3ccccc32)n[nH]1 | -23 | 3687 | 5.2 | 11 | 1 | -4 | 6
Cc1ccn2cc(CSc3ccccc3)nc2c1 | -55 | 3299 | 4.5 | 7 | 7 | -7 | 14
COCCNC(=O)c1cn(CCOC)c(=O)c2c1c1ccccc1n2C | -8 | 3873 | -1.8 | 2 | 7 | -4 | 7
Nc1nonc1C(=O)NN=Cc1cc2c(cc1Cl)OCO2 | x | x | -0.2 | 6 | 15 | x | -3
O=C(CN1CCN(Cc2ccc(Cl)cc2)CC1)N/N=C/c1ccccc1F | -17 | 4431 | x | x | x | -11 | x
COc1ccccc1NC(=O)CSc1nnnn1-c1ccccc1OC | -5 | 3702 | 5.7 | 14 | 7 | -3 | 3
NS(=O)(=O)c1cccc(NC(=O)COC(=O)/C(=C/c2cccs2)c2cccs2)c1 | 0 | 2304 | 3.0 | 10 | -9 | -3 | 47
CCN(CC)C(=O)[C@H]1C[C@H](CC(=O)NCCN2CCOCC2)C(=O)N2CCc3c([nH]c4cc(CCC(=O)N(C)C)ccc34)[C@]12C | -22 | 4098 | 3.0 | 1 | -6 | x | 7
S=C1NC(c2ccccc2)=NCN1c1ccc(Cl)cc1 | -12 | 3554 | 1.3 | 12 | 5 | -1 | 25
COc1cc(NS(=O)(=O)c2ccc(NC(C)=O)cc2)cc(OC)c1 | -10 | 9749 | 6.7 | 4 | 12 | 13 | 1
Cc1cccc(/C=C2/Sc3ccc(C(=O)N4CCOCC4)cc3NC2=O)c1 | 10 | 5892 | 8.9 | -1 | 4 | 8 | -13

Going on with the list:
SMILES | PrP UTR inh | Bead autofluor | RN4220 kill | Mtb hypoxia rep | Mtb hypoxia rep growth | BJeLR lethal | Sa ugtP lethal
CC(=O)NCCC(=O)Nc1cc(S(=O)(=O)N2CCOCC2)ccc1Oc1ccc(F)cc1 | -26 | u | 3.7 | 11 | -1 | -3 | 4
COc1ccc(/C=C2\SC(=S)N(CC(=O)NNC(=O)c3ccncc3)C2=O)cc1 | -5 | 4445 | x | x | x | -2 | x
COc1cc(CNc2ccc(NC(C)=O)cc2)ccc1OCc1ccccc1C | -16 | 5963 | x | x | x | 0 | x
CCN1CCc2c(sc(NC(=O)Cc3ccccc3)c2C(N)=O)C1 | -17 | 6873 | -9.4 | 13 | 8 | 5 | -6
COc1ccccc1NC(=O)C1CCCN(S(=O)(=O)c2c(C)noc2C)C1 (configuration not stated) | -4 | 5895 | 1.7 | 7 | 3 | 9 | -1
COc1cccc(N(C(=O)C2COc3ccccc3O2)C(C(=O)NC2CCCCC2)c2ccc(O)cc2)c1 (configuration not stated) | x | x | 4.3 | 4 | -3 | -2 | 2
O=C(NC(=Nc1nc2ccccc2o1)NC(=O)c1ccccc1)c1ccccc1 | -33 | 2216 | 3.1 | -10 | -12 | 6 | -6
Cc1ccnc(SCC(=O)N2CCc3ccccc3C2)n1 | -36 | 2868 | 3.6 | 2 | 5 | 6 | -3
CCn1c(=O)n(CC(=O)NCc2ccccc2OC)c(=O)c2ccccc21 | -8 | 2405 | -0.7 | x | x | 9 | 1
CCc1ccc2nc(NC(=O)CSCc3c(C)noc3C)sc2c1 | -15 | 3557 | -1.4 | 3 | 1 | 5 | -3
CC(C)N(C(=O)[C@H]1C[C@H](CC(=O)NCC23CC4CC(CC(C4)C2)C3)C(=O)N2CCc3c([nH]c4ccc(Cl)cc34)[C@]12C)C(C)C | -7 | 4034 | -5.7 | -10 | 8 | x | -19
CN1CCN(NC(=O)c2cc(-c3ccc(Br)s3)nc3ccccc23)CC1 | 3 | 5759 | -6.3 | -4 | -2 | -11 | -2
C/C(=N\Nc1ccc([N+](=O)[O-])cc1)c1ccco1 | -77 | 2756 | x | x | x | 6 | x
O=C(Nc1cccn(Cc2cccc(F)c2)c1=O)NC1CCCCC1 | -27 | 4456 | -3.3 | 5 | 2 | 0 | 5
CNC(=S)NNC(=O)c1noc(C)c1C(=O)N1CCN(C(c2ccccc2)c2ccccc2)CC1 | -25 | 4359 | 2.4 | 2 | -15 | 8 | 14
Cc1ccc(S(=O)(=O)NN=Cc2ccc(C#N)cc2)cc1 | x | x | 1.5 | 14 | 0 | x | 3
O=C(NCc1cccs1)[C@@H]1CSC2c3ccccc3C(=O)N21 (some centres not stated) | -8 | 5270 | -0.1 | x | x | 1 | 12
O=C(COc1ccccc1)N1N=C(c2cccnc2)CC1(O)C(F)(F)F (configuration not stated) | -10 | 2456 | 5.2 | 9 | 0 | 1 | 1
CC1CCCC(C)N1C(=O)c1cc(-c2ccc(Cl)c(Cl)c2)on1 (configuration not stated) | -79 | 8115 | -1.1 | -11 | 9 | -9 | 20
CC1(C)c2[nH]c3ccccc3c2C[C@H]2C(=O)N(Cc3ccc(F)cc3)C(=O)N21 | -2 | 4383 | x | x | x | 0 | x
O=C(Nc1ccccc1C(=O)N1CCOCC1)c1ccc(Br)cc1 | -8 | 5991 | 2.1 | 12 | -2 | 4 | 4
CCC1SC(=NN=Cc2ccco2)N(c2ccc(F)cc2)C1=O (configuration not stated) | x | x | 6.2 | 14 | 3 | x | 8
Cc1ccc(S(=O)(=O)NCc2csc(C)n2)cc1 | -13 | 3790 | 4.1 | -4 | -6 | -3 | 15
CCOc1ccc(C(=O)Nc2ccccc2C#N)cc1[N+](=O)[O-] | -14 | 2634 | 0.2 | 7 | 10 | 7 | 1
COc1cc(/C=C/C(=O)OC(C)C(=O)Nc2c(C)n(C)n(-c3ccccc3)c2=O)ccc1OCC#N (configuration not stated) | -6 | 3481 | 4.4 | 10 | 7 | 1 | 5

Continuation.
SMILES | PrP UTR inh | Bead autofluor | RN4220 kill | Mtb hypoxia rep | Mtb hypoxia rep growth | BJeLR lethal | Sa ugtP lethal
O=C(CNC(=O)c1ccc(Cl)cc1)Nc1ccc(S(=O)(=O)Nc2ncccn2)cc1 | -10 | 4764 | 3.8 | -4 | 5 | -3 | 18
CCN(CC)C(=O)Cn1ncc2c1-c1ccccc1OC2 | -16 | 5372 | -5.2 | 2 | 7 | -1 | -2
O=C(NN=CC1CC2CCC1C2)c1ccc2c(c1)OCO2 (configuration not stated) | x | x | 4.0 | 12 | 10 | x | 4
CCOCCCNC(=O)C(c1ccccc1)N(Cc1ccc2c(c1)OCO2)C(=O)CNC(C)=O (configuration not stated) | -13 | 4913 | 5.9 | 16 | 12 | -2 | -1
CN(C)S(=O)(=O)Oc1ccc(Cl)cc1C(=O)Nc1ccc(F)cc1F | -16 | 4802 | 2.7 | 8 | 2 | 8 | 4
CCc1ccccc1NC(=O)c1onc(C)c1Cl | -23 | 4375 | 3.5 | 7 | 1 | -6 | -11
COc1ccc(C2/C(=C(/O)c3ccc(OC(C)C)cc3)C(=O)C(=O)N2CCCN2CCOCC2)cc1 (configuration not stated) | 14 | 2454 | 9.3 | 13 | 2 | -4 | 8
Cc1ccc(F)cc1NC(=O)N1CCCN(C(=O)OC(C)(C)C)CC1 | -84 | 3847 | 3.8 | -1 | 4 | 2 | 8
CCN1CCN(Cc2c(C)[nH]c3ccc(C(=O)OC)cc3c2=O)CC1 | -12 | 9383 | 0.8 | -6 | -10 | 2 | -1
COc1ccc(Cl)cc1NC(=O)C1CCCN(S(=O)(=O)c2cccc3nonc23)C1 (configuration not stated) | -4 | 2054 | -4.9 | x | x | 4 | -5
CSc1nc(=O)n(-c2ccccc2)c(C)c1C(C)=O | -28 | 8353 | 3.1 | 2 | 10 | 7 | 4
Cc1ccc(NC(=O)Nc2ncccc2C)cc1 | -71 | 3121 | 0.6 | -2 | -3 | 2 | 0
Cc1ccc(O)c(CO)n1 | -24 | 5040 | 3.5 | -9 | 0 | 7 | 6
CN(C)c1ccc(/C=N\NC(=O)c2csnn2)cc1 | -96 | 3677 | x | x | x | 2 | x
C[C@@H]1C=C(C(=O)NCc2nc3ccccc3[nH]2)O[C@H](OCc2ccc(CO)cc2)C1 | -9 | 3206 | x | x | x | 0 | x
O=C(Cc1ccc(Cl)cc1)Oc1cccc2cccnc12 | -28 | 7270 | 8.3 | 0 | -3 | x | 89*

Among those listed so far, nine have fluorine.
SMILES | PrP UTR inh | Bead autofluor | RN4220 kill | Mtb hypoxia rep | Mtb hypoxia rep growth | BJeLR lethal | Sa ugtP lethal
O=C(N/C=C\n1cnc2cc(C(F)(F)F)ccc21)c1ccc([N+](=O)[O-])cc1 | -14 | 5684 | -2.2 | -2 | 1 | -1 | 6
O=C(CN1CCN(Cc2ccc(Cl)cc2)CC1)N/N=C/c1ccccc1F | -17 | 4431 | x | x | x | -11 | x
CC(=O)NCCC(=O)Nc1cc(S(=O)(=O)N2CCOCC2)ccc1Oc1ccc(F)cc1 | -26 | u | 3.7 | 11 | -1 | -3 | 4
O=C(Nc1cccn(Cc2cccc(F)c2)c1=O)NC1CCCCC1 | -27 | 4456 | -3.3 | 5 | 2 | 0 | 5
O=C(COc1ccccc1)N1N=C(c2cccnc2)CC1(O)C(F)(F)F (configuration not stated) | -10 | 2456 | 5.2 | 9 | 0 | 1 | 1
CC1(C)c2[nH]c3ccccc3c2C[C@H]2C(=O)N(Cc3ccc(F)cc3)C(=O)N21 | -2 | 4383 | x | x | x | 0 | x
CCC1SC(=NN=Cc2ccco2)N(c2ccc(F)cc2)C1=O (configuration not stated) | x | x | 6.2 | 14 | 3 | x | 8
CN(C)S(=O)(=O)Oc1ccc(Cl)cc1C(=O)Nc1ccc(F)cc1F | -16 | 4802 | 2.7 | 8 | 2 | 8 | 4
Cc1ccc(F)cc1NC(=O)N1CCCN(C(=O)OC(C)(C)C)CC1 | -84 | 3847 | 3.8 | -1 | 4 | 2 | 8
